Compound activity from PubChem.
D2 potentiator – human D2 receptor positive allosteric modulation; AID 624464; DiscoveRx D2 beta-arrestin cells, luminescence, 90 min; 100% = 57 uM dopamine signal; 0.23% of 360,000 active; potentiation, % (test concentration not listed); active = potentiation of 50% or more; inconclusive = 30% to 50%; inactive = 30% or less;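 also: compound concentration not given in the record; tested on top of an EC20 dose of dopamine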
Target sequence (P14416 whole entry, looked up): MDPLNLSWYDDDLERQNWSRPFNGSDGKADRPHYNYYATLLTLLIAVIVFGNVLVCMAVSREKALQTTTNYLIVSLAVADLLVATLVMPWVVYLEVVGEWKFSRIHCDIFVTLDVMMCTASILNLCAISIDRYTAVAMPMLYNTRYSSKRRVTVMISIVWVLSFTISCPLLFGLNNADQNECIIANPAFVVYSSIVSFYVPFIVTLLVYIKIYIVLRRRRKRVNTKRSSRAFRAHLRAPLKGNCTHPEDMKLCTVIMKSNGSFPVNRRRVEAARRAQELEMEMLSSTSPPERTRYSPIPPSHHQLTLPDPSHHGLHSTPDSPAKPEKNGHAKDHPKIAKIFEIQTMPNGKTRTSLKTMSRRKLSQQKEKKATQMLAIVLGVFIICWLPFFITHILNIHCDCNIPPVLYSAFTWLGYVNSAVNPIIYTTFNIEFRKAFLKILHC
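PathHunter D2 cells, attached overnight at 37 deg C, received compound in DMSO plus dopamine at EC20 (50 nM final) for 90 min at 37 deg C. Beta-arrestin recruitment was read as luminescence after 1 h with detection reagent at ambient temperature.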
Menin MLL FP FL – inhibitors of human menin-MLL interaction, wild-type MLL peptide. Fluorescence polarization, fluorescein-MLL peptide displacement from menin. FP activity change, % at 61.4 µM. 290,000 tested, under 10 active. AID 1766; inconclusive = falling polarisation curve, or a change in total fluorescence; inactive = total fluorescence flat and polarisation flat or rising; no compound was filed as active; the % refers to the polarisation; negative = inhibition;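 also: % of control where 0% means no effect; inhibitors lower the polarisation; unlabelled MLL peptide was the positive control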
ClpP mod – qHTS Assay for Activators of ClpP. ATP-dependent Clp protease proteolytic subunit (Bacillus subtilis (strain 168)), P80244. purified B. subtilis ClpP, FRET peptide cleavage, 20 min. AID 651965, 2013. 1.9% of 340,000 active. Potency, µM (highest dose often 57.5 µM), for inactives: at the highest dose activity change, negative = active; active = well fitted falling curve with a large enough effect; inconclusive = small, poorly fitted or top-dose-only effect; inactive = no such curve, though single readings can be large or run the other way; also: potency is read from the fitted curve at half-maximal effect; the source files actives as falling curves though it sought activators and does not explain the sign; nearly all actives have a fitted effect of over 65% in size; many hits overshoot -100%
Target sequence (P80244 whole entry, looked up): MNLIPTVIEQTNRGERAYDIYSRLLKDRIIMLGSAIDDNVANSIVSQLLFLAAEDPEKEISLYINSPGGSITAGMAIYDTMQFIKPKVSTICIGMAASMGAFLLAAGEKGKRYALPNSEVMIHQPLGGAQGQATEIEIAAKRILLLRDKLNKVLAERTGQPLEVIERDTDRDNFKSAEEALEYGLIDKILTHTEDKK
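ClpP 10 microg/mL final, pH 8 Tris/KCl buffer with BSA, glycerol, Tween-20; compound pinned in; FRET-FV substrate; RT 20 min; Ex320/Em430; ΔFRET vs ADEP 5.8 microM, DMSO, no enzyme.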
TRPV1 PAM – human TRPV1 potentiation. Q8NER1. TRPV1-expressing cells, Fluo-8 calcium influx, capsaicin EC20 potentiation; host cell line not named in the record; control for the full effect not named in the record. potentiation, % at 8.33 µM. 0.02% of 320,000 active; active means potentiation above 80%; inconclusive means 30% to 80%; inactive means below 30%; also: 0% is about no effect
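Cells expressing TRPV1 were dye-loaded with Fluo-8 and read kinetically: 10 s baseline, 3 min after compound (agonist portion), then 2 min after EC20 capsaicin (allosteric enhancer portion). Calcium-bound dye fluorescence at 480/520 nm.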
Sfp PPTase inh – Sfp phosphopantetheinyl transferase inhibition. Biochemical Sfp PPTase activity, qHTS. Potency, µM, inactives show max response, negative = inhibition, most hits filed as inhibitors. 3.5% of 310,000 active. AID 1490; active = well fitted inhibition curve with a large enough effect; inconclusive = small, poorly fitted or top-dose-only effect, or another doubt; inactive = no such curve, though single readings can be large or run the other way;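 also: the enzyme is Sfp with the accession as filed and its product quenches rhodamine fluorescence; potency is read from the fitted curve at half-maximal effect; 0% = enzyme reaction without inhibitor and -100% = no enzyme wells; top concentration of the series not given in the record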
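Fluorescence-quenching assay: 15 nM Sfp-PPTase preincubated 15 min at room temperature with compound, then 5 uM rhodamine-CoA and 12.5 uM BHQ-2-labelled YbbR peptide added. Fluorescence (ex 525/em 598 nm) read at start and after 30 min; difference gives rate.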
gsp antagonist – gsp mutant antagonism; gsp-mutant cells, cAMP HTRF, 30 min; control for the full effect not named in the record; Potency, µM (titrated, usually from 76.9 µM), for the others: top-dose activity change, negative = inhibition, most hits filed as inhibitors; AID 624288; 0.4% of 340,000 active; active = falling curve of any shape with a large fitted effect; inconclusive = falling curve, mostly with a smaller effect; inactive = flat or rising curve; cell line not stated here;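 also: intracellular cAMP measured with PDE inhibitor Ro 20-1724 present during compound exposure; potency is read from the fitted curve at half-maximal effect; % is scaled to controls: 0 for no effect and ±100 for the full control effect; nearly all actives have a fitted effect of over 65% in size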
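G418-selected cells were plated in DMEM/10% FBS for 16-24 h at 37C, then treated with compounds plus the PDE inhibitor […] (300 uM solution added) for 30 min at 37C. Intracellular cAMP was measured by HTRF after 30 min lysis at room temperature.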
gsp agonist – activates gsp, the McCune-Albright syndrome mutation. 0.13% of 340,000 active. Potency, µM (series often up to 76.9 µM), without a hit: top-dose activation (cAMP increase), usual class: activators. gsp mutant cells, cAMP HTRF, 30 min; control for the full effect not named in the record. AID 624287; active = well fitted activation curve with a large enough effect; inconclusive = small, poorly fitted or top-dose-only effect, or another doubt; inactive = no such curve, though single readings can be large or run the other way; cell line not stated here;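 also: phosphodiesterase inhibitor Ro 20-1724 added with compounds to block cAMP breakdown; potency is read from the fitted curve at half-maximal effect; nearly all actives have a fitted effect of over 60% in size; about a fifth of the inactives were tested at one dose only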
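Cells in DMEM/10% FBS with G418 were pretreated with compounds in DMSO plus […] (300 uM stock) for 30 min at 37C. cAMP was measured by HTRF (cAMP-d2 plus anti-cAMP antibody-K) after 30 min at room temperature.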
* marks the source's active call; other numbers are inactive results; ? = inconclusive; / = no result given; & = joins results of further samples; [ ] = another dose, or the depositor's remark. Compounds as they come (roughly 5.1% active in at least one column).

SMILES	D2 potentiator	Menin MLL FP FL	ClpP mod	TRPV1 PAM	Sfp PPTase inh	gsp antagonist	gsp agonist
CCCCn1c(N)c(N(CC(C)C)C(=O)CCNC(=O)c2ccc(Br)cc2)c(=O)[nH]c1=O	-69	/	/	-1	/	9%	18%[15.4 µM]
N#C/C(=C/c1ccco1)C(N)=S	-16	?	/	8	10µM*	3%	5%
O=C(CNCc1ccc(F)cc1)Nc1ccc(S(=O)(=O)N2CCOCC2)cc1	-14	/	-0.3%	-5	6%	4%	-32%[inhibitor]
CCOc1ccc(/C=C2/Sc3ccc(C(=O)N4CCOCC4)cc3N(C)C2=O)cc1OC	5	/	/	18	-23%	5%	-2%
Cc1ccc(-n2c(C)cc(/C=N/Nc3ccc([N+](=O)[O-])cn3)c2C)c(C)c1	4	-5.5	2.2%	?	-26%	21%	6%
Cc1cc(C)cc(NS(=O)(=O)c2ccc3c(c2)C(C)(C)C(=O)N3C)c1	1	-6.6	-1.9%	1	0%	-2%	4%
O=C(CCCCCCC(=O)c1ccccc1)c1ccccc1	-7	-0.8	1.1%	3	13%	3%	3%
Cn1cc(CN2CCC(Oc3ccc(C(=O)N4CCCC4)cc3)CC2)cn1	-8	2.3	0.3%	2	18%	20%	11%
CCN1CCCC(OC(=O)Nc2ccccc2)C1 (stereo not given)	-28	2.8	2.9%	2	8%	3%	?
CC(Cc1ccccn1)NC(=O)c1ccc(OC2CCN(CCc3ccccc3)CC2)cc1 (stereo not given)	-39	-0.1	1.9%	27	22%	6%	-14%[15.4 µM]

Reprinted from the part before: 2 entries; new compounds follow.
SMILES	D2 potentiator	Menin MLL FP FL	ClpP mod	TRPV1 PAM	Sfp PPTase inh	gsp antagonist	gsp agonist
CCN1CCCC(OC(=O)Nc2ccccc2)C1 (stereo not given)	-28	2.8	2.9%	2	8%	3%	?
CC(Cc1ccccn1)NC(=O)c1ccc(OC2CCN(CCc3ccccc3)CC2)cc1 (stereo not given)	-39	-0.1	1.9%	27	22%	6%	-14%[15.4 µM]
COc1cccc(N2CCN(Cc3ccsc3)CC2)c1	-18	-0.9	0.1%	-4	-7%	-9%	2%
Cc1ccc(S(=O)(=O)Nc2ncnc3sc(C)c(C)c23)cc1	-17	/	-1.0%	10	/	-16%	8%
COc1ccc(NC(=O)Nc2ccc(C)cc2OC(F)F)cc1OC	-19	-1.1	1.3%	-14	-5%	-10%	22%
CCC(C(=O)OCC(=O)Nc1ccc(SC(F)F)cc1)c1ccccc1 (stereo not given)	-1	2.6	-0.2%	-3	33%[activator]	-22%	-4%
Cc1ccc(NC(=O)c2sc3ncn(CC(=O)N4CCN(c5ccccn5)CC4)c(=O)c3c2C)cc1Cl	-1	/	3.2%	-1	6%	-23%	?
CCOC(=O)CC1=C(C(=O)OCC)C(c2ccc(OC)c(OC)c2)C(C#N)=C(N)O1 (stereo not given)	-8	?	-0.1%	-1	13%	-1%	6%
Cc1cc(C(=O)OCC(=O)NCc2ccccc2)c(C)o1	1	-3.6	/	-16	19%	9%	-2%
CCOC(=O)c1c(C)oc2ccc(OCC(=O)C(C)(C)C)cc12	-33	4.6	-1.4%	-8	-9%	5%	-17%
O=C(Nc1ccc(N2CCOCC2)cc1N1CCOCC1)c1ccc(Br)cc1	-3	/	0.4%	6	12%	-3%	-35%
CC(CCc1ccccc1)NC(=O)Cc1ccccc1 (stereo not given)	-18	/	-0.8%	-14	8%	0%	18%
CCOc1ccc(CNC(=S)N/N=C/c2ccncc2)cc1	-11	2.4	-3.0%	-7	4%	-5%	?
CCCCn1c(N)c(N(CCOC)C(=O)c2cnc(C)cn2)c(=O)[nH]c1=O	-5	/	-3.8%	8	/	1%	9%[15.4 µM]
COc1ccc(-c2cc(CNC(=O)CN(C)Cc3ccccc3)on2)cc1	3	3.1	-2.2%	-5	17%	3%	-65%[inhibitor]
Nc1cc(C(=O)c2cccs2)ccc1Cl	-4	1.0	-0.6%	/	18%	11%	-29%
NC(N)=NC(N)=Nc1ccccc1	-5	3.7&-1.0&28	-1.7%	0	-9%&18%&-11%	10%	-23%
Cc1nc(N/N=C\c2ccc3c(c2)OCO3)sc1C	3	-6.2	/	1	-1%	8%	-32%
COc1cc(OC)cc(C(=O)N[C@H](C(=O)OCC(=O)Nc2ccc(C(N)=O)cc2)C(C)C)c1	-3	5.2	/	-1	8%	?	-2%[15.4 µM]
CN(Cc1ccccc1)C(=O)COc1ccccc1	9	3.3	0.1%	-6	-6%	-3%	22%
C[C@@H](NCCCc1cccc(C(F)(F)F)c1)c1cccc2ccccc12	/	5.0	1.4%	/	79µM*	/	/
CN(NC(=O)c1ccccc1F)c1ncccc1[N+](=O)[O-]	-10	8.1	-1.8%	-2	12%	-1%	-3%
CCC1CCc2c(sc(NC(=O)C3c4ccccc4Oc4ccccc43)c2C(N)=O)C1 (stereo not given)	14	-2.4	?	5	9%	-3%	-37%[inhibitor]
O=C(NCCCN1CCOCC1)c1cc(-c2ccc(Cl)s2)nc2ccccc12	-20	/	?	-11	/	8%	0%[15.4 µM]
O=C1c2cccc3cccc(c23)C(=O)N1/N=C/c1ccc(O)cc1O	2	/	1.3%	1	27%	-15%	21%
CCOC(=O)c1c(NC(=O)c2ccc(S(=O)(=O)N3CCOCC3)cc2)sc2c1CCN(C)C2	-14	9.5	-4.7%	?	-21%	13%	-2%
CC(C)(C)NC(=O)NCC1CCCC1NC(=O)NC(C)(C)C (stereo not given)	-6	-6.7	0.5%	-9	-18%	6%	1%
CC1CCCC(NC(=O)COC(=O)c2c[nH]c(=O)[nH]c2=O)C1C (stereo not given)	3	9.5	22%	12	7%	13%	-20%
CCCCn1nc(C(=O)Nc2ccc(-n3cnnn3)cc2)c2ccccc2c1=O	5	/	1.2%	28	/	-22%	-18%
COc1ccc(S(=O)(=O)N2CCCCCC2)cc1C(=O)N1CCCC(C(F)(F)F)C1 (stereo not given)	-2	/	1.6%	-12	/	-2%	-3%[15.4 µM]
COc1cccc(NC(=O)CCN2CCOCC2)c1	-6	1.5	1.5%	8	-6%	15%	1%[15.4 µM]
COc1ccccc1NC(=O)Cn1cnc2sc(C)c(S(=O)(=O)N3CCCCC3)c2c1=O	-1	12	-0.7%	7	20%	6%	0%
COc1ccc(CCNC(=O)C(=O)NCC2CCCN2S(=O)(=O)c2cccs2)cc1 (stereo not given)	-1	/	-2.7%	?	/	-7%	?
O=C(NCc1cccc(F)c1)c1cccc(OC2CCN(C(=O)C3CC3)CC2)c1	-6	/	-2.5%	6	10%	?	0%
COC(=O)Cn1c(=O)c(C)nc2ccccc21	-14	3.3	?	2	10%	11%	5%[15.4 µM]
CCOc1ccc(N(CC(=O)Nc2ccccc2OC)S(C)(=O)=O)cc1	-2	2.8	-0.7%	10	11%	6%	6%
COc1ccc(OCc2cc(C(=O)N3CCCC3)no2)c2ccccc12	-39	-0.3	-7.9%	-13	-21%	-13%	-2%
CCOC(=O)C1(Cc2cccc(OC)c2)CCCN(S(=O)(=O)N(C)C)C1 (stereo not given)	5	0.2	/	6	23%	-4%	-34%[inhibitor]
C=CCNC(=O)c1cc(-c2ccc(Br)cc2)on1	-4	-0.1	-0.8%	-7	31%[activator]	9%	-19%
CC(C)Oc1ccc(C(=O)Nc2c3c(nn2C(C)(C)C)CS(=O)(=O)C3)cc1	-3	-1.9	0.1%	4	26%	-2%	?
COC(=O)CN(C#N)c1nc(NC(C)C)nc(OC)n1	-8	2.2	-2.9%	-11	-5%	4%	9%
O=C1N=NC(=O)N1c1ccccc1	-2	-2.1	0.6%	9	24%	-3%	/
Cc1noc(C)c1COc1ccccc1C(=O)N(C)CC(=O)Nc1ccc(Cl)c(Cl)c1	-11	/	-1.4%	1	/	-3%	-33%[inhibitor]
Cc1ccccc1NC(=O)NCc1cccnc1	-5	/	/	/	/	7%	7%[15.4 µM]
CCCOC(=O)Nc1nc2ccccc2o1	-10	20	-2.1%	-2	9%	11%	24%
CC1(C)CC(N=c2cc(-c3ccccc3)oc3ccc(Cl)cc23)CC(C)(C)N1	-11	-6.8	5.2%	2	-30%	0%	6%
Cc1nn(C(C)C(=O)NC2CCCCCC2)c(=O)c2nn(-c3ccccc3)c(C)c12 (stereo not given)	-30	/	-2.6%	23	9%	-9%	-21%
O=C(NCCCN1CCOCC1)c1cc(S(=O)(=O)N2CCOCC2)ccc1Cl	-4	/	3.8%	/	/	10%	-9%
N#Cc1nc(-c2cccs2)oc1NCCN1CCOCC1	1	4.3	-2.7%	/	-2%	9%	1%
CCOc1ccc(CCNC(=O)CN2CCN(Cc3ccc(F)cc3)C2=O)cc1OCC	10	3.9	-1.1%	5	7%	3%[15.4 µM]	-32%[inhibitor]
CC(C)C1Oc2ccccc2N(CC(=O)N(Cc2ccncc2)Cc2ccco2)C1=O (stereo not given)	-7	0.7	-1.6%	-3	45µM*	?	6%
COc1ccc(C(CCN(Cc2ccc(OC)c(OC)c2)C(C)=O)C(C)C)cc1 (stereo not given)	-2	-1.9	-0.8%	-10	-4%	-27%	-22%

Continued.
SMILES	D2 potentiator	Menin MLL FP FL	ClpP mod	TRPV1 PAM	Sfp PPTase inh	gsp antagonist	gsp agonist
Cc1ccc(NC(=O)C2CCCN2S(=O)(=O)c2ccc3c(c2)n(C)c(=O)c(=O)n3C)cc1 (stereo not given)	1	-1.5	-14%	-2	11%	-3%	16%[15.4 µM]
O=c1oc2ccccc2c(NC2CCCCC2)c1NS(=O)(=O)c1ccc(Cl)cc1	-16	/	-3.4%	-22	5%	-25%	1%
CC(C)Cc1cc(C(=O)N2CCCC(C(=O)c3cc(F)ccc3F)C2)no1 (stereo not given)	-6	/	/	-1	18%	-17%	-4%
S=c1[nH]nc(CSCc2ccccc2Cl)n1C1CCCCC1	-7	-4.8	-3.0%	-1	13%	-6%	-4%[15.4 µM]
COc1ccc(-c2cc(=O)oc3cc(OCC(=O)NCCN4CCOCC4)ccc23)cc1	-2	3.0	-13%	-6	13%	0%	?
Cc1cc(S(=O)(=O)NCc2ccc3c(c2)OCO3)ccc1F	-3	2.5	-0.7%	1	24%	-2%	-45%[inhibitor]
COc1cc(C2C(C#N)=C(N)Oc3cc(O)ccc32)cc2c1OCO2 (stereo not given)	-1	?	-3.6%	-7	79µM*	-18%	-4%
